# Compound activity deposited in PubChem BioAssay by National Center for Advancing Translational Sciences (NCATS).
# D2 ag: agonists of human D2 dopamine receptor (beta-arrestin); P14416; DiscoveRx PathHunter D2 beta-arrestin, luminescence, 90 min; 100% = 57 uM dopamine signal; activation, % (test concentration not listed); 360,000 tested, 0.084% active; AID 624465; in the data active = activation above about 40%; inconclusive = about 15% to 40%; inactive = below about 15%; note: compound concentration not given in the record; the text of the record calls up to 30% inactive
#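 Agonist mode: compounds alone added to overnight-plated D2 PathHunter cells for 90 min at 37 C, with 57 uM final dopamine (EC100) defining full response. Beta-arrestin recruitment detected by chemiluminescent reagent, read after 1 h at ambient temperature.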
# TRPML1 inh: human mucolipin-1 channel inhibition; TRPML1-inducible cells, Ca2+ dye fluorescence, FDSS; stronger effect = lower value; inhibition of EC80 agonist-evoked calcium signal; 390,000 tested, 0.02% active; activity change, negative = inhibition, % (no concentration beside the values); Q9GZU1; AID 624415; in the data active means activity change below about -50%; inconclusive means about -30% to -50%; inactive means above about -30%;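 note: stimulus is agonist 54-4 at its EC80 concentration; % is set by controls: 0 for no effect and ±100 for the full control effect; compound concentration not given in the record; the text of the record puts the active cut at -80%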
#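 Tet-induced TRPML1-DL cells loaded with Ca8 no-wash calcium dye were read kinetically on FDSS. Compound addition was followed by EC80 agonist 54-4 (4 uM final); inhibition was read over 110 s.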
# D2 potentiator: positive allosteric modulators of human D2 dopamine receptor; P14416; DiscoveRx D2 beta-arrestin cells, luminescence, 90 min; 100% = 57 uM dopamine signal; potentiation, % (concentration not given with the values); 360,000 tested, 0.23% active; AID 624464; active = potentiation of 50% or more; inconclusive = 30% to 50%; inactive = 30% or less;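 note: compound concentration not given in the record; tested on top of an EC20 dose of dopamine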
#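 PathHunter beta-arrestin assay in DiscoveRx D2 cells. Compounds were added with an EC20 of dopamine (50 nM final) for 90 min at 37 deg C. Luminescence was read 1 h after detection reagent, with 57 uM dopamine as the EC100 control.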
# Six1-Eya2 inh: Six1/Eya2 interaction inhibition | Q15475+O00167 | AlphaScreen GST-Six1/His-Eya2 binding, biochemical; stronger effect = lower value; control for the full effect not named in the record | activity change, % (test concentration not listed) | 360,000 tested, 0.56% active; in the data active = activity change below about -65%; inconclusive = about -30% to -65%; inactive = above about -30%; note: % is set by controls: 0 for no effect and ±100 for the full control effect; compound concentration not given in the record
# Target sequence (O00167 whole entry, looked up): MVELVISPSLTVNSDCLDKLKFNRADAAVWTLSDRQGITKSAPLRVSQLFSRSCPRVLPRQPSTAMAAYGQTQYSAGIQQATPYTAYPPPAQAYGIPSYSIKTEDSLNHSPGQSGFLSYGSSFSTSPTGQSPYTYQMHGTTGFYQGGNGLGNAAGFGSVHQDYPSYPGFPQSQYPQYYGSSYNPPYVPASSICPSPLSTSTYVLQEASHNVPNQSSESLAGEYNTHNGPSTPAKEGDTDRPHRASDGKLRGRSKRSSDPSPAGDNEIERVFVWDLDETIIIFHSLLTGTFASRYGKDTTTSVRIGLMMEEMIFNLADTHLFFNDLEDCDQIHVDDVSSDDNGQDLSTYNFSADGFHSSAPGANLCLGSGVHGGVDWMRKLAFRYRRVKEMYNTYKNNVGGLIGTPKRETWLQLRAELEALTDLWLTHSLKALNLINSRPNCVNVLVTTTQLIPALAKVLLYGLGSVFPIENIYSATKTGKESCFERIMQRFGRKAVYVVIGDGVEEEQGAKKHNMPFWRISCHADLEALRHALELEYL
# Target sequence (Q15475 whole entry, looked up): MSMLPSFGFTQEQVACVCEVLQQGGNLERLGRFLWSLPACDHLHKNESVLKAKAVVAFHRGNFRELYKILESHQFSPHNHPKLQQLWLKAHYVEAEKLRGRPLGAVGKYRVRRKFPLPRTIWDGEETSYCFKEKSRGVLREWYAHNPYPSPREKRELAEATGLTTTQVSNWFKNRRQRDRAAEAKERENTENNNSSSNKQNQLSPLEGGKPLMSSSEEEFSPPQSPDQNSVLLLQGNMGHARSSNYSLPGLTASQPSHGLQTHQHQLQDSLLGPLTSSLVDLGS
#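 AlphaScreen with GST-Six1 and His-Eya2 (5X mix: 250 nM and 500 nM), glutathione donor and nickel acceptor beads; buffer 50 mM Tris pH 8.0, 300 mM NaCl, 1 mM TCEP; 1 h at 37 C in the dark.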
# TRPML1 ag: activates the human TRPML1 channel; AID 624414; TRPML1-expressing cells, Ca2+ dye fluorescence, FDSS; host cell line not named in the record; reference of the full effect not given here; activation, % (test concentration not listed); 410,000 tested, 0.12% active; in the data active = activation above about 50%; inconclusive = about 30% to 50%; inactive = below about 30%; note: 0% is about no effect; the text of the record puts the active cut at 80%
#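 Agonist activity was taken from a 110 s kinetic Ca2+ dye read on the FDSS after pinning compounds onto TRPML1-DL cells. The cells were seeded at 1,500/well with Tet inducer, incubated about 16 h, then dye-loaded at room temperature.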
# PINK1 modulator: modulators of PINK1 expression | PINK1 immunofluorescence, high-content cytometry, 24 h | Potency, µM (doses to about 76.6 µM), inactives show at the highest dose activation (PINK1 increase), usual class: activators | 410,000 tested, 0.2% active; active = well fitted activation curve with a large enough effect; inconclusive = small, poorly fitted or top-dose-only effect; inactive = flat fitted curve, though single readings scatter; cell line not stated here;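 note: potency is the fitted concentration of half-maximal effect; % of control where 0% means no effect; nearly all actives have a fitted effect of over 65% in size; a mitochondrial uncoupler was the plate control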
#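 Cells are seeded, rested 12 hours, then given compound at five concentrations or DMSO for 24 hours. After fixation, blocking and antibody staining, PINK1 amount and mitochondrial localization are scored; CCCP serves as control.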
# Numbers without * were called inactive; ? = inconclusive; . = no result given; & = joins results of further samples; [ ] = dose if it differs, or a comment.
SMILES,D2 ag,TRPML1 inh,D2 potentiator,Six1-Eya2 inh,TRPML1 ag,PINK1 modulator
Cn1c(=O)oc2cc(S(=O)(=O)NCC3CCCO3)ccc21 (stereo unspecified),0.4,1,-5,10,0.9,-1.6%
O=C(NC(=S)NNC(=O)c1cccs1)c1ccc(Br)o1,1.1,-15,-5,-1,11,16%[38.3 µM]
CCOC(=O)c1sc(NC(=O)CSc2nc3c(c(=O)n2-c2ccc(C)cc2)SCC3)c(C(=O)OCC)c1C,-2.0,-9,-2,2,-0.1,1.4%
CC(=O)Nc1cccc(NC(=O)CSc2nccn2C2CCCC2)c1,.,-4,.,.,1.4,-0.3%
CCOC(=O)C1(C)C=C(Nc2ccc(OC)cc2)C(=O)N1c1ccccc1 (stereo unspecified),.,2,.,.,-0.2,0.8%
CCn1cc2nc(SCC(=O)Nc3ccc(OC)c(OC)c3)n(Cc3ccc(Cl)cc3)c(=O)c2n1,.,-6,.,.,-0.3,7.7%
CN(CC(=O)NCCc1ccc(S(N)(=O)=O)cc1)S(=O)(=O)c1ccc(Br)s1,4.9,-2,1,4,-0.7,-2.6%
CN1C(=O)Cc2cc(S(=O)(=O)NCc3c(F)cccc3Cl)ccc21,-9.8,13,-15,9,0.0,3.4%
CCOCCCN(Cc1cc2cc(C)cc(C)c2[nH]c1=O)C(=O)N(CC)CC,-0.9,24,-13,3,-0.2,-2.1%
Cn1ccc2c(-c3ccccc3F)cc3c(c21)C1CCC3C1 (stereo unspecified),-5.9,.,-6,-13,-0.3,5.5%
CCOC(=O)Cc1nnc(NC(=O)COc2ccc(OC)cc2)s1,-0.9,-4,-5,0,1.1,0.8%
Cc1[nH]c2ccccc2c1C(c1ccccn1)N1CCC(C(N)=O)CC1 (stereo unspecified),-1.3,-6,-35,1,-0.7,0.6%
CC(C)n1nnnc1C1c2ccccc2C(=O)N1Cc1ccco1 (stereo unspecified),.,.,.,22,-0.9,-0.3%
O=C(Cn1c(=O)cnc2ccccc21)Nc1cc(Cl)ccc1N1CCOCC1,-0.3,-16,-23,-9,-0.5,-1.4%
Cc1cccc(C)c1NC(=O)Cn1c(=O)n(Cc2ccc(C(=O)NCc3ccco3)cc2)c(=O)c2sccc21,.,5,.,.,2.0,-1.1%
CC(C)CCNC(=O)CN(Cc1ccccc1)C(=O)CCC(=O)Nc1ccccn1,-4.7,2,-6,-1,-0.4,-1.0%
COc1cc(-c2nnco2)cc(OC)c1OC,0.9,-14,0,5,-0.9,0.6%
CN(C)c1ccc(C(=O)/C=C/c2ccccc2)cc1,-2.3,9,-12,-4,0.4,6.2%
COc1ccccc1N1CCN(CC(=O)c2c(C)n(C)c3ccccc23)CC1,-1.0,18,-31,-5,3.0,-2.0%
CCc1ccc([C@H]2C(C(=O)O)=C[C@@H](CC)N2S(=O)(=O)c2ccc(C)cc2)cc1,-1.9,9,5,-15,1.5,-1.1%
Cc1ccc(C)c(CSc2nc3ccncc3n2CC(=O)Nc2ccc(N(C)C)cc2)c1,.,-1,.,.,-1.1,1.3%
CCn1c(SCC(N)=O)nnc1-c1ccc(S(=O)(=O)N2CCN(C)CC2)cc1,-3.5,-15,1,6,0.4,-2.2%[38.3 µM]
CCOC(=O)C1=C(CN2CCC(C)CC2)NC(=O)NC1c1ccc(Cl)cc1 (stereo unspecified),3.7,-2,6,0,8.5,-1.7%[38.3 µM]
O=S(=O)(c1cccc(C(F)(F)F)c1)N1CCC(CO)(CCCc2ccccc2)CC1,3.1,12,-1,0,2.1,2.6%
COc1cc(NC(=O)c2ccc3snnc3c2)cc(OC)c1,-6.3,5,-18,-1,0.0,9.1%
CCOC(=O)c1ccc(N=NN(C)C)cc1,-1.6,3,0,-7,1.0,4.4%
CCN(CC)CCn1c2c(c(SCC(=O)Nc3ccc(F)c(F)c3)nc1=O)CCC2,-0.8,-1,-3,1,0.9,-5.2%
Cc1ccc(S(=O)(=O)N(C)c2ccc(OCC(=O)NC3=NCCS3)cc2)cc1,-2.2,-16,1,7,-0.7,1.2%
Cc1ccc(Nc2ncnc3nc[nH]c23)cc1Cl,-5.8,20,0,0,-1.2,0.2%
N/C(CC(=O)Nc1ccc(F)cc1F)=N\OC(=O)c1cccs1,15,-2,17,7,2.5,-0.1%

# Entries of single compounds, quoted from the list. Screens in order: D2 ag | TRPML1 inh | D2 potentiator | Six1-Eya2 inh | TRPML1 ag | PINK1 modulator
# Record of `CN(C)c1ccc(C(=O)/C=C/c2ccccc2)cc1` = -2.3 | 9 | -12 | -4 | 0.4 | 6.2%
# Record of `CCn1cc2nc(SCC(=O)Nc3ccc(OC)c(OC)c3)n(Cc3ccc(Cl)cc3)c(=O)c2n1` = . | -6 | . | . | -0.3 | 7.7%
# Record of `CCOCCCN(Cc1cc2cc(C)cc(C)c2[nH]c1=O)C(=O)N(CC)CC` = -0.9 | 24 | -13 | 3 | -0.2 | -2.1%
# Record of `Cn1c(=O)oc2cc(S(=O)(=O)NCC3CCCO3)ccc21` (stereo unspecified) = 0.4 | 1 | -5 | 10 | 0.9 | -1.6%
# Record of `Cn1ccc2c(-c3ccccc3F)cc3c(c21)C1CCC3C1` (stereo unspecified) = -5.9 | . | -6 | -13 | -0.3 | 5.5%

# Other compounds follow.
SMILES,D2 ag,TRPML1 inh,D2 potentiator,Six1-Eya2 inh,TRPML1 ag,PINK1 modulator
CN=C(Cc1ccccc1)C1=C(O)CC(C)(C)CC1=O,-1.8,-7,-2,-20,0.3,2.2%
CCn1c(SCC(=O)N2CCc3ccccc32)nnc1-c1ccco1,-1.7,2,-27,-2,-0.9,-1.8%
CCCCC[C@@H]1C=C(C(=O)O)[C@H](c2cccc(C)c2)N1S(=O)(=O)c1ccc(C)cc1,-0.6,-6,-4,3,0.8,-1.9%
CCN(CC)C(=O)[C@H]1C[C@H](CC(=O)NCc2ccco2)C(=O)N2CCc3c([nH]c4cc(CCC(=O)N(C)C)ccc34)[C@]12C,2.3,-1,.,0,-0.5,0.0%
Cc1cccc(NC(=O)CN2C(=O)NC3(CCCCCCC3)C2=O)c1C,-1.7,26,-8,0,1.1,1.9%
COc1ccc(CNC(=O)CC23CC4CC(CC(C4)C2)C3)cc1OC,-0.9,-1,-1,6,-1.0,6.3%
Cc1nn(-c2ccccc2)c(C)c1C(=O)Oc1ccccc1,-2.2,4,-19,-16,1.7,3.5%
CS(=O)(=O)N(CC(=O)NCC1CCCO1)c1ccc(F)c(Cl)c1 (stereo unspecified),-0.5,0,-6,-4,-0.7,6.9%
Cc1nnc(NC(=O)C2CCCCC2)s1,-6.9,5,-8,-3,-0.6,5.7%
NC(=O)C1CCN(CCS(=O)(=O)c2ccc(Cl)cc2)CC1,5.1,?,-2,-1,1.4,-0.9%
Oc1c(Br)cc(/C=N/n2c(-c3ccccc3)n[nH]c2=S)c(O)c1Br,?,3,-6,?,-0.7,-0.9%
Cc1ccc(OCC(=O)NCCNC(=O)c2cccnc2)cc1C,-3.1,-14,-4,-1,-0.4,1.6%
Fc1ccc(-c2csc3ncnc(N4CCc5ccccc5C4)c23)cc1,-1.7,24,19,-4,2.0,18%
Cc1cc2oc(C(=O)NCc3ccc4c(c3)OCO4)c(C)c2cc1C,-0.9,24,-14,0,7.3,-1.5%
CCn1c(SCC(=O)N/N=C/C=C\c2ccco2)nc2ccccc21,-3.9,3,-13,-15,0.0,0.2%
COc1ccc(N2CCN(C(=O)COC(=O)Cc3c(F)cccc3Cl)CC2)cc1,0.2,16,-21,-10,-0.3,0.3%
COc1ccccc1NS(=O)(=O)c1cccc(C(=O)NN=C2CCCC2)c1,8.8,4,1,-5,-0.6,0.2%
CCCc1ccc(OCC(O)CN2CCCC2)cc1 (stereo unspecified),-3.1,-3,-11,10,0.5,-0.1%
Cc1ccc(N2CCN(S(=O)(=O)c3ccc(-n4cnnn4)cc3)CC2)c(C)c1,-1.2,-1&6,5,-2,0.1&1.1,5.7%&2.8%
COc1ccc(NC(=O)C/C(C)=N/NC(=O)c2cnccn2)cc1,1.3,-6,-3,-2,-0.4,-0.4%
CCNC(=O)C1(C)CCCN(C(=O)c2ccc(C(F)(F)F)nc2C)C1 (stereo unspecified),1.0,.,0,11,-0.6,-0.3%
Cc1ccc(CNC(=O)CCCn2c(=O)c3ccccc3n(CC(=O)Nc3ccc(C)cc3)c2=O)cc1,.,-6,.,.,-0.4,3.0%
COc1ccc(CCNC(=O)C2CC(c3ccc(C(F)(F)F)cc3)=NO2)cc1 (stereo unspecified),2.5,3,0,-3,0.8,3.1%
CC(=O)c1ccc(-c2cnc3c(NC=O)cc(-c4ccc(C(=O)N5CCOCC5)cc4)cn23)cc1,14,.,7,2,-1.2,-0.7%
CSc1ccc(OC2(C)CCN(Cc3ccc(OC(C)C)cc3)C2)cc1 (stereo unspecified),2.9,.,-8,-26,-0.4,?
CC(C)Cc1ccc(C#N)c(SCC(N)=O)n1,-2.0,12,8,3,0.7,.
CC(C)NS(=O)(=O)c1ccc(Br)c(C(=O)OC(C)C(=O)NC2CCCCC2C)c1 (stereo unspecified),-0.6,10,-2,6,-1.0,-0.4%
O=C(Nc1ccc(F)cc1F)N1CCN(c2ccc(Cl)c(Cl)c2)CC1,.,19,.,.,-0.5,2.7%
C[C@H](NC(=O)N1CCn2c1nc1ccccc12)C(=O)NC1CC1,-0.5,5,-7,5,0.6,0.2%
O=P(O)(O)COc1ccccc1P(=O)(c1ccccc1)c1ccccc1,-0.2,8,-15,6,-0.5,-1.1%
CC1Sc2ccc(S(=O)(=O)NCCc3ccccc3)cc2NC1=O (stereo unspecified),-1.2,-6,-1,21,-0.6,10%
Cc1c([N+](=O)[O-])cc(C(=O)N2CCOCC2)cc1[N+](=O)[O-],-2.8,1,6,-6,0.4,-0.2%
Cn1cc([N+](=O)[O-])c(C(=O)N/N=C/c2ccncc2)n1,1.7,26,5,3,-0.2,0.5%
COc1cccc(CNC(=O)CSc2nnc3c(n2)[nH]c2ccc(OC)cc23)c1,-4.3,-1,-4,-6,-0.3,15%
CCOC(=O)CCNC(=O)c1ccccc1Br,0.7,-11,-3,5,-0.8,-0.4%
CCN1CCN(CCC(=O)Nc2ccccc2C)CC1,-1.6,-11,-18,-4,0.3,0.4%
O=C(Nc1cccc(-c2nc3cccnc3s2)c1)c1cccc(Br)c1,.,-5,.,.,-0.6,0.5%
CC[C@]12C(=O)N(C)C[C@H]([C@@H]3C(=O)N(C)C(=O)[C@@H]31)N2C(=O)c1ccc(Cl)cc1,0.4,15,-3,2,-0.6,0.4%
Cc1sc2nc(SCC(=O)N(CCO)CCO)n(C3CCCCC3)c(=O)c2c1C,-1.2,-3,-17,3,-0.9,5.2%
CCCOc1ccc(C(=O)CCC(=O)NNC(=O)Cn2nc(C)cc2C)cc1,-3.4,-1,-1,-3,0.2,0.3%
Cc1cccn2c(=O)c(/C=C(\C#N)C(=O)NCc3ccco3)c(N3CCCCCC3)nc12,-2.4,38,-19,-21,2.4,0.5%
CC1CCCCC1NC(=O)CCS(=O)(=O)c1cccc2nonc12 (stereo unspecified),-1.5,-21,-14,1,-0.4,-3.6%
